Assay outcomes deposited in PubChem by National Center for Advancing Translational Sciences (NCATS).
Resorufin autofl – resorufin region autofluorescence | Compound fluorescence, resorufin region 547/598 nm, buffer; hits give high values | 59,000 tested, 0.04% active | AID 588 | max dye-equivalent concentration, M; active = above 10 nM dye equivalent; inconclusive = 1 to 10 nM; inactive = 1 nM or less; a few of its hits are not listed in these tables; further: highest value over a series up to 38 µM
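Compounds in 100 mM Tris buffer, pH 8.0, incubated 15 min at room temperature, then read with 547 nm excitation and 598 nm emission filters. Fluorescence was converted to dye-equivalent concentration using an on-plate six-point resorufin standard curve.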
A488 autofl – compound fluoresces in the A488 spectral region. compound autofluorescence, A488 spectral region, dye equivalency; hits give high values. max dye equivalency, M. 59,000 tested, 0.1% active. AID 591; active = above 10 nM dye equivalent; inconclusive = 1 to 10 nM; inactive = 1 nM or less; about half of its hits are not listed in these tables;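 further: highest value over a series up to 38 µM; compound alone in buffer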
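Intrinsic compound fluorescence is measured in 100 mM Tris buffer at pH 8.0 following 15 min incubation at room temperature. Intensities at 480 nm excitation/540 nm emission are calibrated to an on-plate A488 concentration series, giving dye-equivalent concentrations.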
AID923 – qHTS Assay for Allosteric/Competitive Inhibitors of Caspase-1: Spectroscopic Profiling in AFC Spectral Region. compound fluorescence, AFC spectral region (405/520 nm); almost no hit is shown here. Potency, µM (series often up to 57.5 µM), without a hit: top-dose fluorescence increase, actives largely listed as activators. 75,000 tested, 1.1% active. AID 923, 2007; active means well fitted activation curve with a large enough effect; inconclusive means small, poorly fitted or top-dose-only effect;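 further: potency means the concentration at half of the fitted maximal effect; 0% is about no effect; scaled to a free AFC standard on each plate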
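Compound autofluorescence profiled at 405 nm ex/520 nm em during kinetic caspase 1 run (50 nM enzyme, 5 uM Ac-WEHD-AFC, HEPES pH 7.5, 10 mM DTT). Titration up to 57 uM; baseline from regression intercept, normalized to AFC standard curve.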
A647 fluor – compound fluoresces in the A647 spectral region. Compound fluorescence, A647 channel (570/671 nm), Tris buffer. 59,000 tested, under 10 active. AID 592. max dye-equivalent concentration, M; active means above 1 µM dye equivalent; inconclusive means 0.1 to 1 µM; inactive means 0.1 µM or less;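 further: values scaled relative to a standard on each plate; highest value over a series up to 38 µM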
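Buffer was dispensed, compounds and Alexa 647 standards were pin-transferred, and plates sat 15 min at room temperature. Intensity at 570/671 nm was then converted to dye-equivalent concentration using the plate's A647 standard curve.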
TSHR ag – activates the human thyroid stimulating hormone receptor; P16473; HEK293-CNG-TSHR cells (CNG channel as cAMP sensor), membrane potential dye, cAMP; 73,000 tested, 0.48% active; Potency, µM (doses to about 57.1 µM), for inactives: at the highest dose activation, usual class: activators; active = well fitted activation curve of enough size with the parental cells flat; inconclusive = any curve in the parental cells; inactive = parental cells flat and receptor cells flat or falling; further: potency means the concentration at half of the fitted maximal effect; % of control where 0% means no effect; weak receptor curves with flat parental cells got no call and are not listed
Target sequence (P16473 whole entry, looked up): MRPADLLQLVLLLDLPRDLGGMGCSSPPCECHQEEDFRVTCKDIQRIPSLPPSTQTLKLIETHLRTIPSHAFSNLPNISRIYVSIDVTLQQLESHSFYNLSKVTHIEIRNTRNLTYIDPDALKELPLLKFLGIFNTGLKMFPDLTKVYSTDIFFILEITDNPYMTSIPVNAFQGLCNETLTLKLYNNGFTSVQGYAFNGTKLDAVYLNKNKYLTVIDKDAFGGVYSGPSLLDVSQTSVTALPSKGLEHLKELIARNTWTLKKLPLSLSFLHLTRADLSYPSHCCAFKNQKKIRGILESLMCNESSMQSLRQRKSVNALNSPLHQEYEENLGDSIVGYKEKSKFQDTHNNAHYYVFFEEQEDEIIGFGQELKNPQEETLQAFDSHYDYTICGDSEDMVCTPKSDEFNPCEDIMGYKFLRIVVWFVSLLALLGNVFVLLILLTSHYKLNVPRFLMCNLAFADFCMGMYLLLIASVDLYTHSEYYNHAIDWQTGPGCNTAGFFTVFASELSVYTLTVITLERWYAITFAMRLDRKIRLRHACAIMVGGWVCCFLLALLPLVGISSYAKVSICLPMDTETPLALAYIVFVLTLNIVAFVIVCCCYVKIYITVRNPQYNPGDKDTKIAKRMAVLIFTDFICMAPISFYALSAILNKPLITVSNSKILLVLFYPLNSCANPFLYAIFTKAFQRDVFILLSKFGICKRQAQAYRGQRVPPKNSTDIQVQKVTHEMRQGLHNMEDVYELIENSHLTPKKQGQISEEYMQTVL
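cAMP rise detected as CNG-channel membrane depolarization by fluorescent dye (emission 590 nm), 30 min after compound, following 60 min dye loading containing 100 uM RO 20-1724 at room temperature. Cells: TSHR/CNG HEK 293, with parental CNG HEK 293 as control.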
* hit, by the source's call; i = inactive; ? = inconclusive; · = not tested or not shown; [ ] = another dose, or the depositor's remark.

SMILES	Resorufin autofl	A488 autofl	AID923	A647 fluor	TSHR ag
CCOC(=O)CSc1nnc(CNC(=O)c2ccc(OC)cc2)n1C1CCCCC1	i	i	0.0%	3.5e-09	3%
CCC(=O)Nc1ccc(S(=O)(=O)Nc2cccc(C)c2)cc1OC	i	i	0.2%	4.8e-09	6%
Fc1cccc(-n2c(-c3ccco3)nc3nc4ccccc4nc32)c1	i	i	6.1%	6.3e-09	-19%
COc1ccc(/C(O)=C2\C(=O)C(=O)N(CCN(C)C)C2c2cc(OC)c(OC)c(OC)c2)c(C)c1 (centres undefined)	i	i	0.9%	1.7e-09	-6%
Cc1cc(C)n(Cc2cc(C)c(Cn3nc(C)cc3C)cc2C)n1	i	i	·	9.2e-09	·
COc1cc2c(cc1OC)C(COc1ccc(F)cc1)N(C(=O)c1ccco1)CC2 (centres undefined)	i	i	-0.6%	1.7e-08	·
O=C(Nc1ccccc1)N1CCN(Cc2ccc3c(c2)OCO3)CC1	·	·	-0.4%	·	?
COC(=O)Cc1cc(=O)[nH]c(/N=C(/NC(=O)c2ccccc2)Nc2ccccc2C)n1	i	i	-0.6%	3.6e-08	22%
CN=C1SC(CC(=O)Nc2ccccc2F)C(=O)N1C (centres undefined)	·	·	2.7%	·	2%
O=C(CSc1ccc2nnc(-c3ccccn3)n2n1)Nc1ccc2c(c1)OCCO2	·	·	4.0%	·	-4%

Of the compounds above, 2 have a furan ring, fused or not:
SMILES	Resorufin autofl	A488 autofl	AID923	A647 fluor	TSHR ag
Fc1cccc(-n2c(-c3ccco3)nc3nc4ccccc4nc32)c1	i	i	6.1%	6.3e-09	-19%
COc1cc2c(cc1OC)C(COc1ccc(F)cc1)N(C(=O)c1ccco1)CC2 (centres undefined)	i	i	-0.6%	1.7e-08	·

More structures follow:
SMILES	Resorufin autofl	A488 autofl	AID923	A647 fluor	TSHR ag
COCCn1c(C)cc(C(=O)CSc2nc3ccccc3o2)c1C	i	i	1.5%	2.1e-08	?
COc1ccc(C2CC(c3c(O)cc(C)oc3=O)=NCCS2)c(OC)c1 (centres undefined)	·	·	1.4%	·	15%[11.4 µM]
CCN1CCN(CCNC(=O)CS(=O)(=O)Cc2nc(-c3ccc(C)cc3)oc2C)CC1	·	·	2.1%	·	5%
COc1ccc(C2c3c(oc4ccc(C)cc4c3=O)C(=O)N2c2cc(C)ccn2)cc1OC (centres undefined)	i	i	0.4%	4e-09	-9%
CCOC(=O)C1C(=O)NC(N2CCCCC2)=NC1C(C)C (centres undefined)	i	i	-0.1%	1.5e-08	-4%
CC(=O)N1CCC2(CC1)CCN(c1ncccn1)CC2	i	i	1.1%	1e-09	8%
COc1ccccc1N1CCN(CC(=O)c2c(C)[nH]c3ccccc23)CC1	i	i	0.9%	1e-09	?
CC1(C)C(=O)OC(c2cccs2)C(C)(C)C1=O (centres undefined)	i	i	0.9%	1e-09	2%[11.4 µM]
CCOC(=O)Cn1c(C(F)(F)F)nc2nc(Cl)c(Cl)nc21	i	i	-2.2%[11.5 µM]	2.6e-08	-5%[11.4 µM]
CC1(C)CC(OC(=O)c2ccco2)CC(C)(C)N1O	i	i	-1.4%	2.2e-09	15%
CCOC(=O)CN1CC23C=CC(O2)C(C(=O)NCc2cccs2)C3C1=O (centres undefined)	i	i	1.1%	1e-09	7%
O=C(c1ccccc1)N1CCN(CC#CC2(O)CCCCC2)CC1	i	i	-2.4%	3.8e-09	-1%
CC(C)C(=O)NC(=O)C1CCCN1C(=O)/C=C/c1ccccc1 (centres undefined)	·	·	0.1%[11.5 µM]	·	-2%[11.4 µM]
CCOc1ccccc1NC(=O)CN(Cc1ccccc1)S(C)(=O)=O	i	i	-1.6%	1e-09	?
O=C(CSc1nc2ccccc2[nH]1)c1ccc2c(c1)OCO2	i	i	1.4%	2.5e-08	3%
C[C@@H](C(=O)NCC1CC1)[C@@H]1C[C@@]1(C)[C@@H](NC(=O)OCc1ccccc1)c1ccccc1	·	·	1.4%	·	14%
CC1(C)C(C=C(Cl)Cl)C1C(=O)N1CCN(c2ccccc2)CC1 (centres undefined)	i	i	1.9%	8.3e-09	?
N#CC1=C(N)Oc2n[nH]c(-c3ccc(F)cc3)c2C1c1ccncc1 (centres undefined)	i	i	1.7%	4.4e-09	2%[11.4 µM]
CC(Sc1nc(NCc2ccccc2)nc(N2CCOCC2)n1)C(=O)Nc1ccccc1 (centres undefined)	i	i	-1.4%	1e-09	·
COc1ccc2cc3cc(C(=O)NCc4ccc5c(c4)OCO5)oc3nc2c1	i	i	4.6%	1.3e-09	29%

Fetched one by one from the entries so far:
SMILES	Resorufin autofl	A488 autofl	AID923	A647 fluor	TSHR ag
O=C(CSc1nc2ccccc2[nH]1)c1ccc2c(c1)OCO2	i	i	1.4%	2.5e-08	3%
CCOc1ccccc1NC(=O)CN(Cc1ccccc1)S(C)(=O)=O	i	i	-1.6%	1e-09	?

Additional compounds follow.
SMILES	Resorufin autofl	A488 autofl	AID923	A647 fluor	TSHR ag
COC(=O)/C=C\c1cc(O)ccc1O	·	·	3.2%	·	-2%
CCCc1nnc(NC(=O)CCC(=O)N2CCN(CCOc3ccc(C)cc3)CC2)s1	i	i	-0.5%	1.9e-08	13%
COc1cc2cc(C(c3nnnn3C(C)(C)C)N3CCc4ccccc43)c(=O)[nH]c2cc1OC (centres undefined)	i	i	2.9%	2e-08	3%
O=C(c1ccco1)N1CCC(c2nc(-c3ccc(F)cc3)no2)CC1	i	i	-0.5%	3.1e-08	?
CNC(=O)c1cc2cccc(OC)c2oc1=O	i	i	-2.1%	7e-09	-6%
COC(=O)CSc1nnc(-c2ccoc2C)n1-c1ccc(C)cc1	i	i	1.4%	1e-09	16%
FC(F)(F)c1ccccc1-c1nc(NCCN2CCOCC2)c2ccccc2n1	i	i	0.8%	1.1e-08	-2%
COc1ccc(-n2c(=O)c(-c3ccccc3)nc3cnc(N4CCNCC4)nc32)cc1	i	i	10%	2.5e-08	-2%
COC(=O)c1cn(NC(=O)C2COc3ccccc3O2)c(=O)c2ccccc12 (centres undefined)	i	i	-0.3%	3.3e-08	?
O=C1Nc2ccccc2C(O)(C(=O)NCc2ccco2)N1c1ccc(Cl)c(Cl)c1 (centres undefined)	i	i	0.5%	1e-09	0%

Ordered by the number under A647 fluor (ascending): three of the compounds above.
SMILES | Resorufin autofl | A488 autofl | A647 fluor
O=C1Nc2ccccc2C(O)(C(=O)NCc2ccco2)N1c1ccc(Cl)c(Cl)c1 (centres undefined) | i | i | 1e-09
FC(F)(F)c1ccccc1-c1nc(NCCN2CCOCC2)c2ccccc2n1 | i | i | 1.1e-08
COc1cc2cc(C(c3nnnn3C(C)(C)C)N3CCc4ccccc43)c(=O)[nH]c2cc1OC (centres undefined) | i | i | 2e-08

Continuation.
SMILES	Resorufin autofl	A488 autofl	AID923	A647 fluor	TSHR ag
CCOc1ccc(CN2C(=O)c3ccccc3C2C(=O)NCc2cccnc2)cc1 (centres undefined)	i	i	0.9%	5.6e-09	4%
CCCc1c(C)c2ccccc2[nH]c1=O	i	i	-0.6%	6.9e-09	6%
COc1ccc2c(c1)CCCC21NC(=O)NC1=O (centres undefined)	i	i	-0.6%	1.1e-08	-1%
Cc1ccc(C(C)NC(=O)c2c(C)noc2C)cc1C (centres undefined)	i	i	0.1%	1.3e-09	0%
COc1ccc(C(=O)Nn2c(C)ccc2C)cc1OC	i	i	-0.7%	4.1e-08	5%
COc1ccc(-c2noc(CCC(=O)Nc3cccnc3)n2)cc1OC	i	i	-0.2%	1e-09	-1%
O=C(c1cc2cc(Cl)ccc2oc1=O)N1CCCC1	i	i	-0.1%	1.5e-09	2%
CC(=O)NC(CCS(C)(=O)=O)C(=O)Nc1c(F)cccc1F (centres undefined)	i	i	-0.1%	5.9e-09	0%
NC(=O)c1c(NC(=O)CSc2nnc(Cc3ccccc3)n2Cc2ccco2)sc2c1CCC2	i	i	12%	2.7e-08	?
COc1cc2[nH]c(=O)n(CCCC(=O)N3CC=C(c4ccccc4)CC3)c(=O)c2cc1OC	i	i	-0.9%	6.5e-09	·
Cc1cc(C(=O)OCC(=O)N2c3ccccc3CC2C)c(C)o1 (centres undefined)	i	i	0.8%	1e-09	?
CCOC(=O)CCN1C(=O)[C@H]2[C@H]3[C@H](O)[C@H](O)C/C(=N/NC(=O)OCc4ccccc4)[C@@H]3CC[C@@H]2C1=O	·	·	-0.9%[11.5 µM]	·	1%[11.4 µM]
C=CCn1c(=O)c2ccccc2n2c(SCc3csc(-c4ccccc4)n3)nnc12	i	i	-2.9%	1e-09	?
c1ccc(-c2nnc(-c3ccco3)o2)cc1	i	i	0.2%	1e-09	5%
COc1ccc(CNC(=O)C2CCN(S(=O)(=O)N3CCOCC3)CC2)cc1	i	i	0.3%	1e-09	4%[11.4 µM]
COc1ccc(Cn2c(=O)[nH]c3cc(C(=O)NCCCN4CCCC4=O)ccc3c2=O)cc1	i	i	0.1%	1.9e-08	-1%
Cc1ccc(-n2ncc3c(=O)n(CC#N)cnc32)cc1	i	i	2.1%	1e-09	-1%
CN(C)CCNc1ccccn1	i	i	0.6%[11.5 µM]	4.3e-09	-1%[11.4 µM]
O=C(c1ccncc1)N1CCC2(CCCN(c3ncccn3)C2)CC1	i	i	-0.1%	1e-09	2%
CCn1c2ccccc2c2cc(C3C(C#N)=C(N)Oc4n[nH]c(COC)c43)ccc21 (centres undefined)	i	i	7.1%	1e-09	11%
COc1ccc(CCNC(=O)C2CCCCC2C(=O)O)cc1OC (centres undefined)	i	i	0.6%	4.6e-09	-1%
Cc1cc2oc(=O)cc(CN3CCCc4ccccc43)c2cc1C	i	i	0.3%	1e-09	11%[11.4 µM]
COc1cc2c(cc1OC)CN(C(=O)c1cc3ccccc3oc1=O)CC2	i	i	-1.3%	2.2e-09	1%
CC(=O)N[C@H](CS)C(=O)O	i	i	1.1%	1e-09	4%
Cc1ccc(C)c2[nH]c(=O)c(CN(CCN3CCCC3)C(=O)Nc3cccc(Cl)c3)cc12	i	i	0.9%	1e-09	?
O=c1c(-c2ccccc2)nc2cnc(Oc3cccc(Cl)c3)nc2n1C[C@H]1CCCO1	i	i	8.8%	2.4e-09	15%
O=C(C1CCC1)N1CCc2cc(S(=O)(=O)N3CCCCC3)ccc21	i	i	-0.6%	3.2e-09	-3%[11.4 µM]
Cc1ccc(-n2nnnc2SCC(=O)Nc2c(C)n(C)n(-c3ccccc3)c2=O)cc1	i	i	1.4%	3.6e-09	?
C=CCn1c(Cc2csc(N)n2)nnc1SCC(=O)Nc1ccc(C(=O)OCC)cc1	i	i	-0.5%	7e-08	6%
CCc1ccc2c(c1)C(C)=CC(C)(C)N2	i	i	·	1e-09	·
COc1ccc(C2C3=C(CCCC3=O)Nc3nc(SCc4ccc(C(=O)O)cc4)nn32)cc1OC (centres undefined)	·	·	0.4%	·	-1%
CCCn1c(O)c(CN2CCCC(C)C2)c(C)c(C#N)c1=O (centres undefined)	i	?	4.9%	1.9e-08	-5%
O=C(Nc1nnc(-c2ccco2)s1)c1ccccc1	·	·	0.4%	·	-7%
O=C(NCCN1CCN(c2ccccc2)CC1)C1(S(=O)(=O)c2ccc(Cl)cc2)CC1	·	·	-0.3%	·	0%
O=C(c1ccncc1)N1CCC2(CC1)CCN(c1cccc(-c3ccccc3)c1)CC2	i	i	1.2%	1e-09	30%
CCn1c(SCC(=O)Nc2cccc(C(C)=O)c2)nnc1C(C)C	i	i	-0.3%	5.8e-09	-1%
CCOC(=O)N1CCC(NCCNC(=O)c2cccs2)CC1	i	i	-1.4%	2.4e-08	0%
Cc1ccc(-c2nnn(CC(=O)Nc3ccccc3N3CCOCC3)n2)cc1	i	i	-2.8%	3.1e-08	5%
Cc1[nH]nc2c1C(c1ccoc1)C(C#N)=C(N)O2 (centres undefined)	i	i	0.8%	7.8e-09	1%
Cc1ccc(S(=O)(=O)N=Nc2c(O)[nH]c3cc(O)c(C(=O)O)cc23)cc1	i	i	-1.0%[11.5 µM]	3.1e-08	6%[11.4 µM]

This is a subset (hit frequency here may not be typical).
